Source: PubChem
KCNQ2 block: KCNQ2 potassium channel inhibitors, primary screen, cell-based, CHO-K1, FluxOR thallium flux, B-score (AID 2156); 20 min; stronger effect = lower value; only compounds with negative scores are shown here; some inactives read as strong as hits; B-score at 10 µM; 310,000 tested, 1.1% active;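 active = fluorescence ratio B-score at most minus 3 library SDs, with starting brightness B-score within 2 library SDs, cut at about -5.5 in these data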
Target sequence (O88943 whole entry, looked up): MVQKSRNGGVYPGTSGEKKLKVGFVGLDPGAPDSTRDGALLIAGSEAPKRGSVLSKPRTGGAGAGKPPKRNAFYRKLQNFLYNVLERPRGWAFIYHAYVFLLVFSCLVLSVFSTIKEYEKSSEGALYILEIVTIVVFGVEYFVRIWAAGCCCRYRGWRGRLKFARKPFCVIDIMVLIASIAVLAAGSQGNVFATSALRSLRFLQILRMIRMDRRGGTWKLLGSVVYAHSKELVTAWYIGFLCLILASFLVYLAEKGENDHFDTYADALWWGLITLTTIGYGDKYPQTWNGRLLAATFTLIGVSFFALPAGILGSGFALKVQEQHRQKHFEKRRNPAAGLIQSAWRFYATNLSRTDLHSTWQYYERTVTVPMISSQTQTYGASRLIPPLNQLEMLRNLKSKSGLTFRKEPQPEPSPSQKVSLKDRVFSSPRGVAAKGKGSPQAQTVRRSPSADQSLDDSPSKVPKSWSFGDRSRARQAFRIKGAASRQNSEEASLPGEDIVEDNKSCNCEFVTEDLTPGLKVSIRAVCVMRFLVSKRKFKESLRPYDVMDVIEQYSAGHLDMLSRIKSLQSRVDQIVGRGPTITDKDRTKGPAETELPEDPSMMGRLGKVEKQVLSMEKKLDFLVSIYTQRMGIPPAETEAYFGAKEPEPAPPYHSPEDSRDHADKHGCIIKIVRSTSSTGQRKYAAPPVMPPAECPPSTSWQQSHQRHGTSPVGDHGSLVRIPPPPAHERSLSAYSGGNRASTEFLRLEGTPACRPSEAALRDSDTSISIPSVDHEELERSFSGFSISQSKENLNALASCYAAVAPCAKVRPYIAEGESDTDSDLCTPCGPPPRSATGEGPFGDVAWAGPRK
KCNQ2 block baseline: second read-out of KCNQ2 block, no call of its own (marks repeat the call); B-score; measured here: initial fluorescence intensity artifact check;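 brightness before thallium and not channel activity; 0 = typical well and far values either way flag optical interference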
* = called active by the depositor; i = inactive. Not all compounds are listed; count on the stated rates, not on these rows.

KCNQ2 block	KCNQ2 block baseline	mol
i	0.52	O=C(NCCc1ccco1)C(=O)NCC1CCCN1S(=O)(=O)c1ccccc1 (configuration not stated)
i	-0.6	COc1cc2ccccc2cc1C(=O)Nc1ccc(Cc2ccncc2)cc1
i	-1.35	Cc1ccc(O)c(NC(=S)NC(=O)c2ccccc2Cl)c1
i	-1.52	COc1ccc(-c2cc(C(F)(F)F)nc(N3CCCCC3)n2)cc1OC
i	3.07	COc1cccc(CN2CCN(S(=O)(=O)c3ccc(Br)cc3)CC2)c1
i	-0.94	CCOC(=O)CSc1nnc(-c2ccc(NS(=O)(=O)c3ccc(C)cc3)cc2)o1
i	1.82	CCOC(=O)c1[nH]c2cc(OC)c(OC)cc2c1NC(=O)CN(C)C1CCCCC1
i	-0.1	CCC(C)[C@H](NC(=O)N1CC(=O)Nc2ccccc21)C(=O)Nc1nccs1 (some centres not stated)
i	-0.62	CC(C)CC(c1nnnn1CC1CCCO1)N1CCN(c2nc3ccccc3s2)CC1 (configuration not stated)
i	3.98	COc1cccc([C@H](O)Cn2cc(-c3ccc(CON=C(C)C)cc3)nn2)c1

The list continues.
KCNQ2 block	KCNQ2 block baseline	mol
i	-0.07	CCO/C=C1/C(=O)N(c2ccc(OC)cc2)C(=O)c2ccccc21
-6.48*	1.17*	CCOc1cc(N2CCOCC2)c(OCC)cc1NC(=O)c1ccc(C)s1
i	-0.03	Cc1nc(SCc2ccc(Cl)c(Cl)c2)ncc1C(=O)O
i	1.21	Cc1cc(C(=O)N2CCCC(N3CCN(c4cccc(C(F)(F)F)c4)CC3)C2)no1 (configuration not stated)
i	-1.22	COc1ccc(CN2CCCC(C(=O)c3ccc4c(c3)OCO4)C2)c(F)c1 (configuration not stated)
i	0.24	Cc1nnc(SCC(=O)Nc2cccnc2Cl)s1
i	0.81	COC(=O)C1C(c2ccccc2)C(C(=O)O)C1c1ccccc1 (configuration not stated)
i	0.28	CN=C(c1ccc([N+](=O)[O-])cc1)N1CCCCC1
i	-1.06	COc1c2n(C)ccc3c-2n(c(=O)c1=O)c1ccccc31
i	-0.89	C=CC(=O)Nc1ccc(Br)cc1

More compounds follow.
KCNQ2 block	KCNQ2 block baseline	mol
i	1.61	COC(=O)c1ccc(C23CC4(C2)[C@H](CN(Cc2ccc(-c5ccccc5)cc2)[C@@H]4c2ccccc2)C3c2ccc(C(F)(F)F)cc2)cc1 (some centres not stated)
i	-1.12	COCCn1nnnc1C(c1ccc(OC)cc1)N1CCN(c2ccccc2F)CC1 (configuration not stated)
i	1.51	CCCCn1c(N)c(N(CC(C)C)C(=O)c2ccc(S(=O)(=O)N(CC)c3ccccc3)cc2)c(=O)[nH]c1=O
i	1.34	CN(C)C(=O)CC12CC3CC(C1)CC(CC(=O)N(C)C)(C3)C2
i	2.23	COc1ccc(C(=O)N2CCN(c3ccc(NC(=O)c4ccco4)cc3)CC2)cc1
i	-0.89	CC(=O)c1ccc(N(CC(=O)NC2CCCC2)C(=O)c2ccc(C)s2)cc1
i	-1.07	CC1CN=C(NC2CCCCC2C)S1 (configuration not stated)
i	-0.89	COc1ccc(Cn2c(=O)[nH]c3cc(C(=O)N4CCN(c5ccccc5OC)CC4)ccc3c2=O)cc1
i	-0.19	CCOC(=O)c1cc(-c2ccccc2)n(CC(=O)Nc2ccc(OCC)cc2)c1C
i	-2.25	Cc1cccc(C(=O)Nc2cccc(Br)c2)c1[N+](=O)[O-]

More entries follow.
KCNQ2 block	KCNQ2 block baseline	mol
i	1.18	Cc1ccc(Cn2nnc3c(=O)n(Cc4cc(C)ccc4C)cnc32)cc1
i	0.11	O=S(=O)(c1cc(O)ccc1O)c1cccc2c(S(=O)(=O)c3cc(O)ccc3O)cccc12
i	-1.62	Cc1nnc(NC(=O)c2ccc(S(=O)(=O)C(F)F)cc2)s1
i	-1.89	COc1cccc(/C=C/C(=O)OCC(=O)Nc2ccc3[nH]c(=O)[nH]c3c2)c1OC
i	-0.2	CCCNC(=O)CSC1=N/C(=C/c2ccc(F)cc2)C(=O)N1CC
i	0.76	CN(C)CCNC(=O)C(c1ccccc1)c1ccccc1
i	0.33	Cc1cc(Cl)c2oc(C(=O)N(CCO)Cc3ccccc3)c(C)c2c1
i	-0.62	Cc1c(/C=N/NC(=O)C(NC(=O)c2ccc3c(c2)OCO3)C(C)C)c2ccccc2n1C (configuration not stated)
i	1.17	CC(C)(SC(=S)N1CCCCCC1)C(=O)O
i	0.38	O=C1OC(c2ccc(Cl)cc2)=N/C1=C\c1cccnc1

Next records
KCNQ2 block	KCNQ2 block baseline	mol
i	1.13	CCOc1cc(NC(=S)NCCCN2CCOCC2)c(OCC)cc1NC(=O)c1ccc(C)cc1
i	4.24	CC(Oc1ccccc1)C(=O)N=C1SC2CS(=O)(=O)CC2N1c1ccc(F)cc1 (configuration not stated)
i	-0.61	Cc1ccc(OCCOC(=O)c2nc3nccc(C)n3n2)cc1
i	1.72	CN(Cc1nccs1)C(=O)C1CCC(=O)N(CCCc2ccccc2)C1 (configuration not stated)
i	-0.02	Cc1cccc(C(=O)NCCN2CCN(c3ccccc3)CC2)c1
i	-0.26	O=C(CSc1nc2ccccc2o1)NCc1ccco1
i	2.29	Cc1c(CCC(=O)NCCCn2ccnc2)c(=O)oc2c(C)c3oc4c(c3cc12)CCCC4
i	-0.71	COc1ccc(NS(=O)(=O)c2cccc(C(=O)OCC(=O)NC3CC3)c2)cc1
i	0.03	Cc1ccc(NC(=O)CSc2ncn[nH]2)cc1
i	-0.43	O=C(NCc1ccccc1)c1ccc(N2CCC3(CC2)CC(c2ccc(Cl)cc2)=NO3)c([N+](=O)[O-])c1

More results
KCNQ2 block	KCNQ2 block baseline	mol
i	-0.06	O=C(C1COc2ccccc2O1)N1CCN(c2ccccc2)CC1 (configuration not stated)
i	-0.26	COc1ccc(C(=O)Nc2cccc(-c3nc4ncccc4o3)c2C)cc1OC
i	0.55	COC(=O)CCSCc1cn2cc(Cl)ccc2n1
i	-0.02	Clc1cccc(/C=N\Nc2nccs2)c1
i	1.52	CN(CC(=O)Nc1cccc(F)c1)C(=O)c1cc(-c2ccco2)nc2ccccc12
i	-0.35	CCn1c(=O)c(C(=O)CN2CCN(Cc3ccc4c(c3)OCO4)CC2)c(N)n(Cc2ccccc2)c1=O
i	-0.19	CN(CCO)c1c2c(nc3cc(-c4cccc(F)c4)nn13)CCCC2
i	0.88	CC(C)(C)c1ccc(NC(=O)NC2CCCc3ccccc32)cc1 (configuration not stated)
i	-0.94	COc1cc(C(=O)O/N=C2\C=CC(=O)C=C2C)cc(OC)c1OC
i	-1.18	N#Cc1ccc(-c2cccs2)nc1SCc1cccnc1

(listing goes on)
KCNQ2 block	KCNQ2 block baseline	mol
i	-0.59	COc1ccc2cc1Oc1ccc(cc1)C[C@H]1c3cc(c(OC)cc3CCN1C)Oc1c(OC)c(OC)cc3c1[C@H](C2)N(C)CC3
i	1.05	OC1CN=C2C=CC=CN2C1 (configuration not stated)
i	-0.02	CCOc1ccc(NC(=O)C2CCN(C(=O)NC3CCCCC3)CC2)cc1
i	0.01	O=C(Nc1nnc(SCc2ccccc2)s1)c1cccc([N+](=O)[O-])c1
i	-0.03	O=C(CSc1nc2ccccc2s1)N/N=C/c1ccc(C(=O)O)cc1
i	0.7	Cc1ccc(N=C2SCCCN2C(=O)c2ccco2)cc1Cl
i	1.38	Cc1cccc(NC(=O)CSc2nnc(-c3ccccc3)n2N)c1C
i	1.24	CCc1ccc(CCC(=O)Nc2ncc(Cc3ccccc3Cl)s2)o1
i	-0.73	O=C(NCc1ccco1)c1cccnc1-c1nc2ccccc2s1
i	-0.25	COc1cc(CCC(=O)OCC(=O)Nc2ccccc2C(C)C)cc(OC)c1OC

Next results:
KCNQ2 block	KCNQ2 block baseline	mol
-8.07*	-4.04*	Cc1cc(C)c2nc(C)cc(N/N=C/c3ccc(O)cc3)c2c1
i	-0.6	CN(c1ccccc1)c1nc(N)c(C#N)c(CC#N)c1C#N
i	-0.31	CCCS(=O)(=O)Nc1cc(C(F)(F)F)ccc1OCCOC
i	-0.41	COc1ccc(C)c2sc(N3CCCC3)nc12
i	0.64	CC(=O)NNC(=O)CSc1nnc(-c2ccccc2)c(-c2ccccc2)n1
i	1.23	COc1ccc(CC(=O)NNC(=O)CSc2ccc(C)cc2)cc1
i	0.31	Cc1ccc(C)n1-n1cnc2scc(-c3cccs3)c2c1=O
i	0.51	COc1ccc(C(=O)Nc2cc(C(F)(F)F)ccc2-n2cnc3ccccc32)cc1
i	0.07	CCOC(=O)c1cc2c(n(-c3ccc(C)cc3)c1=O)CCCC2=O
i	0.32	COc1cc(C(=O)Nc2cccc(-c3nc4ncccc4o3)c2C)cc(OC)c1OC

More entries follow:
KCNQ2 block	KCNQ2 block baseline	mol
i	-1	CCOC(=O)c1cc(-c2nnc(-c3ccc(Cl)cc3)o2)c(C)nc1C
i	-0.21	CCN1CCN(C(=O)CN(C)S(=O)(=O)c2cc(C)ccc2OC)CC1
i	-0.17	Cc1cccc(C)c1OCCCCn1cnc2ccccc2c1=O
i	-1.82	COc1ccc(-c2cc(C)no2)cc1S(=O)(=O)N1CCCN(Cc2ccc(F)cc2)C1
i	0.36	O=C(NCc1ccncc1)Nc1cccc(Cl)c1
i	-0.51	COc1nc(N(C)C)nc(N(C)c2cc(Cl)cc(Cl)c2)n1
i	1.03	N#Cc1ccc(CN2C(=O)NC3(CCCCCC3)C2=O)cc1
i	2.01	CC(C)C(NC(=O)OCc1ccccc1)C(=O)OCC(=O)N1CCCCC1 (configuration not stated)
-6.71*	-1.83*	COc1ccc2oc(C(=O)N(C)Cc3ccc4c(c3)OCCO4)c(C)c2c1
i	0.02	Cc1cc(C(=O)CN2C(=O)c3ccccc3C2=O)c(C)n1Cc1cccs1

In another format: results already given.
SMILES | KCNQ2 block | KCNQ2 block baseline
N#Cc1ccc(CN2C(=O)NC3(CCCCCC3)C2=O)cc1 | i | 1.03
CC(C)C(NC(=O)OCc1ccccc1)C(=O)OCC(=O)N1CCCCC1 (configuration not stated) | i | 2.01
COc1ccc2oc(C(=O)N(C)Cc3ccc4c(c3)OCCO4)c(C)c2c1 | -6.71* | -1.83*
Cc1cc(C(=O)CN2C(=O)c3ccccc3C2=O)c(C)n1Cc1cccs1 | i | 0.02

Rewritten in CSV form: six of the compounds above
SMILES,KCNQ2 block,KCNQ2 block baseline
COc1ccc(-c2cc(C)no2)cc1S(=O)(=O)N1CCCN(Cc2ccc(F)cc2)C1,i,-1.82
O=C(NCc1ccncc1)Nc1cccc(Cl)c1,i,0.36
COc1nc(N(C)C)nc(N(C)c2cc(Cl)cc(Cl)c2)n1,i,-0.51
N#Cc1ccc(CN2C(=O)NC3(CCCCCC3)C2=O)cc1,i,1.03
CC(C)C(NC(=O)OCc1ccccc1)C(=O)OCC(=O)N1CCCCC1 (configuration not stated),i,2.01
COc1ccc2oc(C(=O)N(C)Cc3ccc4c(c3)OCCO4)c(C)c2c1,-6.71*,-1.83*

Following part.
KCNQ2 block	KCNQ2 block baseline	mol
i	3.64	C[C@@H]1CN(Cc2nc(Cc3ccccc3F)no2)C[C@H](C)O1
i	2.89	Cc1cc(-c2n[nH]c(=S)n2/N=C/C(Cl)=C/c2ccccc2)n[nH]1
i	1.48	CCOC(=O)C1CCN(S(=O)(=O)c2c(C)[nH]c(C)c2C(=O)N2CCCCC2)CC1
i	-0.59	COC(=O)c1ccccc1NC(=O)c1ccc(NC(=O)C2CCCO2)cc1 (configuration not stated)
i	1.83	CC(=O)NCCCc1c[nH]c2ccc(Cl)cc12
i	0.54	O=S(=O)(NC1CCCC1)c1ccc(S(=O)(=O)NC2CCCC2)cc1
i	-0.09	COc1ccc(-n2ccnc2CN2CCCC(CO)(Cc3cccc(OC)c3)C2)cc1 (configuration not stated)
i	0.6	COC(=O)C1CC(=O)N(Cc2ccccc2)C1 (configuration not stated)
i	0.16	Cc1ccc(C(=O)Nc2ccc(Cl)cn2)cc1S(=O)(=O)N1CCOCC1
i	-1.79	O=C(CSc1nnc(-c2cccnc2)n1CCN1CCCCC1)Nc1cccc(Cl)c1

(list continues)
KCNQ2 block	KCNQ2 block baseline	mol
i	0.32	CCOc1cc(C#N)c(NC(=O)c2cccnc2)cc1OCC
i	2.25	Cc1[nH]n(-c2ccccc2)c(=O)c1C1(C(F)(F)F)C(=O)N(c2ccccc2)C2=C1C(=O)CC(C)(C)C2 (configuration not stated)
i	-0.26	COc1ccc(-c2ccc(C#N)c(OC(=O)c3c(Cl)cccc3Cl)n2)cc1
i	-0.02	Nc1ccc(C(=O)OCc2nc3ccccc3s2)cc1
-5.94*	3.39*	Cc1cccc(/C=N/NC(=O)c2cc(Br)ccc2OCc2ccccc2)n1
i	0.93	CCOC(=O)C(C)Oc1cccc2c(=O)n(CC(=O)N3CCc4ccccc43)ccc12 (configuration not stated)
i	-0.03	COCCn1c(Br)nc2c1c(=O)n(C)c(=O)n2C
i	-0.09	O=C(CSc1nc2cc(C(=O)O)ccc2c(=O)n1-c1ccc(F)cc1)Nc1ccc(F)c(F)c1F
i	0.67	CC1=NOC(=O)/C1=C\c1ccc(-c2ccc(Br)cc2)o1
i	-0.5	CCN(Cc1ccccc1)C(=O)CCc1nc(-c2ccc(C)cc2)no1

Going on with the list:
KCNQ2 block	KCNQ2 block baseline	mol
i	-0.06	CNC(=O)NC(=O)COC(=O)c1n[nH]c2ccccc12
i	0.18	COc1ccc(NC(=O)COC(=O)CCCc2c[nH]c3ccccc23)cc1OC
i	-1.55	COc1ccc(S(=O)(=O)Nc2ccccc2C(=O)N2CCOCC2)cc1Cl
i	-1.57	Cc1nc(-c2coc3cc(OCC(=O)O)ccc3c2=O)cs1
i	0.11	Cc1cc(C)cc(NC(=S)NC2CC3CCCC(C2)N3C2CCCC2)c1 (configuration not stated)
i	-1.58	COc1ccc(NC(C)C(=O)Nc2ccc(C#N)cc2)cc1Cl (configuration not stated)
i	1.39	S=C(Nc1ccc2cn[nH]c2c1)Nc1ccc(Cl)cc1Cl
i	0.14	CC(=O)NC(C(=O)c1ccccc1)N1CCCCC1 (configuration not stated)
i	-0.51	O=C(O)CCCSc1nccn1-c1ccccc1
